Screening results: PubChem, several laboratories
MT1-MMP reporter = inhibitors of MT1-MMP promoter transcription, cell-based, luciferase reporter, luminescence (AID 618). MT1-MMP promoter luciferase reporter cells, luminescence. calls from a first round at 10 µM; hits with a dose series show EC50 in µM. hit rate 0.62% among 87,000;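 active means over half of the reporter light lost at 10 µM or EC50 under 50 µM; inactive means the rest and hits that failed the dose series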;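 further: actives suppress MT1-MMP promoter-driven transcription so potencies describe inhibitors; HT1080 fibrosarcoma cells; overnight exposure; toxic or luciferase-blocking compounds were not removed from the actives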
Hsc70 = Hsc70 inhibitors, probe displacement, primary screen, biochemical, fluorescence polarization (AID 568); Hsc70 fluorescence polarization, probe displacement; higher % means a stronger effect; strong numbers were not always called active; one-dose displacement, % at 20 µM; IC50 in µM for titrated hits; 83,000 tested, under 10 active;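 active means displacement above 50% without optical interference and an IC50 on retest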;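 further: ATPase domain with a fluorescein-tagged ATP probe; 0% = vehicle and 100% = excess ADP; read after one hour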
WNV NS2B-NS3 inh = inhibitors of West Nile virus NS2B-NS3 protease; P06935; WNV NS2B-NS3 protease, fluorogenic substrate Ex360/Em465; hits give low values; z-score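 (tested at a level between 10 and 100 µM)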; hit rate 0.18% among 65,000; AID 577;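 active means z-score at -3 or under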;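 further: score is relative to mean and spread of the compound wells of a plate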
Target sequence (P06935 1371-1501 limits assumed): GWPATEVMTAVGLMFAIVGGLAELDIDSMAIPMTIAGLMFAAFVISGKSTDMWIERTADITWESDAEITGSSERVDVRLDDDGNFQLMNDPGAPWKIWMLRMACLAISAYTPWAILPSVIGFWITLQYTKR
Target sequence (P06935 1502-1679 limits assumed): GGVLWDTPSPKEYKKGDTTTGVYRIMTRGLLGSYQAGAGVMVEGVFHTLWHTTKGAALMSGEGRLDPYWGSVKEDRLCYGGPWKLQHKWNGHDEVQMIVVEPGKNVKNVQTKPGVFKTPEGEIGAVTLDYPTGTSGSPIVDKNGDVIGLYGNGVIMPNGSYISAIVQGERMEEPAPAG
An asterisk follows results filed as active; i = inactive; . = not tested or not shown. The list is partial (hit frequency here may not be typical).

SMILES | MT1-MMP reporter | Hsc70 | WNV NS2B-NS3 inh
COc1cc(C)nc(NC(=O)COc2ccc(Cl)cc2C)n1 | i | 1.8% | 1.52
Nc1nc(-c2ccccc2)cc(-c2ccccc2O)n1 | i | 0.3% | 1.37
CCOC(=O)c1c(C)c(C(=O)Nc2ccc3c(c2)OCCO3)c(C)n1C | i | 4.8% | -1.94
CCn1c(Cc2ccccc2)nnc1SCc1nc2ccccc2c(=O)[nH]1 | i | -1.0% | 1.14
O=c1c(-c2ccccc2)n[nH]c2ccccc12 | i | -5.1% | -0.000744
Cc1cc(C(=O)NNC(=S)NCc2ccco2)n(C)n1 | i | -2.2% | .
N#CCCN(C(=O)Nc1ccc(Cl)cc1)c1ccccc1 | i | 0.6% | -0.6
COc1ccc(NC(=O)c2cc3n(n2)C(C(F)(F)F)CC(c2ccco2)N3)cc1 (stereo unspecified) | i | -10.4% | 0.6
Cc1sc2ncnc(SC(C)C#N)c2c1C (stereo unspecified) | i | 0.4% | 0.99
COc1ccc(S(=O)(=O)Nc2ccccc2C(F)(F)F)cc1 | i | 3.4% | -0.46
CCCCCCSc1nc2c(c(=O)[nH]c(=O)n2C)n1C | i | 3.8% | -0.47
C=CCc1ccccc1OCC(O)CN1CCN(c2ccc(OC)cc2)CC1 (stereo unspecified) | i | 5.5% | 0.61
CCOC(=O)C1CCN(c2c(NCCCN3CCN(Cc4ccccc4)CC3)c(=O)c2=O)CC1 | i | -1.2% | 0.12
CC1=Nn2c(nnc2-c2n[nH]c3c2CCC3)SC1 | i | 0.1% | -0.6
Cc1cccc(-n2cnc3c(c2=O)c2nc4ccccc4nc2n3Cc2ccco2)c1 | i | 2.8% | 0.13
COc1cc(CC(=O)N2CCc3ccccc32)cc(OC)c1OC | i | 1.6% | -0.46
CCOc1ccc2ccccc2c1C(=O)N1CCOCC1 | i | -11.2% | -0.82
CCCCNc1cc(C)nc(NCc2ccccc2)n1 | i | -8.6% | 1.32
CCCOc1ccc(C(=O)Nc2cc(-c3nn4c(C)nnc4s3)ccc2C)cc1 | i | 0.7% | -2.12
CCc1nnc(NC(=O)c2ccc(N3C(=O)CCC3=O)cc2)s1 | i | 2.5% | 0.82
O=C(OCc1nc2ccccc2s1)c1cccs1 | i | -0.9% | -2.32
COc1ccc(NC(=O)c2cccnc2N2CCCCC2)cc1 | i | 2.0% | 0.13
COc1ccccc1C(=O)Nc1cccc(NC(C)=O)c1 | i | 1.7% | 1.71
CCCCN(Cc1ccccc1)S(=O)(=O)c1cc(Br)cc2c1N(C(C)=O)C(C)C2 (stereo unspecified) | i | -1.4% | .
NS(=O)(=O)c1cc2c(cc1C(F)(F)F)NCNS2(=O)=O | i | -1.9% | -0.16
CCSc1nc2c(c(=O)[nH]1)C(c1ccncc1)C(C(=O)OC)=C(C)N2 (stereo unspecified) | i | 1.6% | 0.07
CCOC(=O)c1sc(N)c(C#N)c1CSc1nc2ccc(C)cc2[nH]1 | i | -6.1% | .
CC1=Nn2c(nc(-c3ccccc3)c2-c2ccccc2)N(CC(N)=O)C(=O)C1 | i | -2.1% | 1.13
O=C(CN1C(=O)C2C3C=CC(C3)C2C1=O)Nc1nc2ccccc2[nH]1 (stereo unspecified) | i | -2.3% | .
Cc1ccc2c(c1)c1ncnc(N3CCc4ccccc4C3)c1n2C | i | -10.5% | -0.28
COC(=O)c1ccc(Cc2ccc(C(=O)OC)o2)o1 | i | -4.6% | 0.36
CCn1c(=O)cc(OCC(=O)N(C)c2ccccc2F)c2ccccc21 | i | 4.8% | -0.03
c1nnc2c3c4c(sc3ncn12)CCC4 | i | -1.1% | -0.62
COc1cc(C2c3c(oc4ccccc4c3=O)C(=O)N2Cc2ccco2)ccc1O (stereo unspecified) | i | 4.1% | .
O=C(CN1CCc2ccccc2C1)Nc1ccc(Br)cc1 | i | 0.3% | .
O=C(Nc1cccc(C(F)(F)F)c1)C1CCN(S(=O)(=O)c2cnc[nH]2)CC1 | i | -0.2% | 0.02
CCN1C=C(C(=O)OC)C(c2cccc(C)c2)C(C(=O)OC)=C1 | i | 4.2% | 2.65
CCOC(=O)C1=C(N)N(c2ccccc2)C(=O)C1 | i | 1.5% | .
NC1=NC(c2cccc(O)c2)n2c(nc3ccccc32)N1 (stereo unspecified) | i | 5.6% | 0.58
CCOC(=O)N1CCN(S(=O)(=O)c2ccc3c(c2)OCC(=O)N3)CC1 | i | 3.1% | 0.69
Cc1cc(NC(=O)CN2CCN(c3ccccc3F)CC2)nc2c1c(=O)oc1ccccc12 | i | 9.3% | 0.4
CN1CCN(c2oc(COc3ccc(-c4ccccc4)cc3)nc2C#N)CC1 | i | 0.6% | -0.12
N=C1C=CC=C2C1=NC1(CCCCC1)N2O | i | -6.6% | 0.06
CCCCn1cnc2cc(NCc3cccc(OC)c3O)ccc21 | i | 2.7% | 0.07
O=C(NCCc1ccc(Cl)cc1)C1CCCN(S(=O)(=O)c2cnc[nH]2)C1 (stereo unspecified) | i | 2.0% | 0.88
CCOc1ccc(N(CC(=O)NC(C)(C)C)C(=O)c2ccco2)cc1 | i | -5.1% | 0.06
O=C(Cc1ccc(F)cc1)OCC(=O)c1cc2ccccc2o1 | i | -0.6% | 0.52
CC(C(=O)Nc1ccc(N2CCOCC2)cc1)N1C(=O)c2ccccc2C1=O (stereo unspecified) | i | 4.8% | -1
CCN(CC(=O)Nc1ccc2c(c1)OC(F)(F)O2)Cc1nc2ccccc2c(=O)[nH]1 | i | 4.5% | .
COc1ccc(C2C(C(=O)c3sc(C)nc3C)=C(O)C(=O)N2CCCn2ccnc2)cc1 (stereo unspecified) | i | -1.2% | 0.14
COc1ccc(N2C(=O)CC(N3CCN(c4ccc(C(=O)c5cccnc5)cc4)CC3)C2=O)cc1 (stereo unspecified) | i | 3.5% | .
O=C(Nc1cc(C(F)(F)F)ccc1-n1cncn1)c1ccc(Br)cc1 | i | 4.4% | .
COc1ccc(C)cc1S(=O)(=O)NCCC1=CCCCC1 | i | 5.3% | .
CCOC(=O)Cn1c(=O)c2c(nc(Br)n2CC(=O)OCC)n(C)c1=O | i | 1.7% | 0.33
CCOc1ccc(C2CC(c3ccc(CC)cc3)n3nc(N)nc3N2)cc1 (stereo unspecified) | i | 3.0% | -0.85
Cc1ccc(NC2=NC(=S)N(CC#N)C23CCCCC3)cc1 | i | 8.4% | .
O=C1OCCC1Sc1nnc(-c2ccccc2)o1 (stereo unspecified) | i | 1.8% | 0.49
Cc1ccc(NC(=O)CCN2CCN(C/C=C/c3ccccc3)CC2)cc1C | i | -14.6% | -0.79
CCCN(Cc1cc2cc(C)ccc2[nH]c1=O)C(=O)c1cccc(OC)c1 | i | 0.1% | 0.24
Cc1sc2nc(SCC(=O)N(CCO)CCO)n(C3CCCCC3)c(=O)c2c1C | i | -1.6% | -0.13
Carrying on.
SMILES | MT1-MMP reporter | Hsc70 | WNV NS2B-NS3 inh
CCOCCCN1CN(S(=O)(=O)c2ccc(Cl)cc2)c2nc3ccccc3nc21 | i | 1.3% | .
CCNc1nc(NCC)nc(Oc2ccc(OCC)nn2)n1 | i | -1.4% | 0.89
CCCCCn1c(CCNC(=O)c2cccs2)nc2ccccc21 | i | -2.8% | .
Cc1ccc(Nc2nnc(SCC(=O)NCc3ccco3)s2)cc1 | i | -0.6% | -1.58
CC(=O)NCc1nc2ccccc2n1Cc1ccccc1C | i | -0.3% | -0.56
CCOc1ccc(NC(=O)CN(C)S(=O)(=O)c2cccs2)cc1 | i | -4.9% | -0.37
O=c1c2c(nc3c(-c4cccc(Br)c4)c[nH]n13)CCCC2 | i | 3.8% | -1.44
CCOC(=O)N1CCOCCOCCN(C(=O)OCC)CCOCC1 | i | -1.7% | -0.15
COc1cc2nc(C3CCC3)n(NC(=O)C3CCC3)c(=O)c2cc1OC | i | 3.1% | .
O=C(CNS(=O)(=O)c1ccc(Br)s1)NCc1ccc2c(c1)OCO2 | i | 2.6% | -1.33
CC1=CC(C)(C)N(C(=O)CSc2nnc(-c3ccccc3)o2)c2ccc(C)cc21 | i | 3.7% | -0.66
Cc1cc(C)c(C#N)c(Oc2ccc(O)cc2)n1 | i | 5.7% | -0.36
COc1cc(NC(=O)c2c(-c3ccccc3Cl)noc2C)c2ncccc2c1 | i | -2.1% | -0.18
Cc1oc(-c2cc(Cl)ccc2Cl)cc1-c1nn2c(C)nnc2s1 | i | -9.9% | 0.61
COc1cc(NC(=O)Cc2ccccc2OC)cc(OC)c1 | i | -28.4% | 0.67
CC(=O)Oc1cccc2c1C(=O)c1c(OC(C)=O)cc(C(=O)O)cc1C2=O | i | 8.7% | -0.21
CCOC(=O)C(NC(C)=O)(Nc1ccc(S(=O)(=O)Nc2onc(C)c2C)cc1)C(F)(F)F (stereo unspecified) | i | 0.4% | -0.69
Cc1ccsc1C1C=C(c2cccc(Br)c2)Nc2ncnn21 (stereo unspecified) | i | 41.1% | -1.33
COc1ccc(C)cc1NC(=O)NC1CCN(Cc2ccccc2)CC1 | i | -2.3% | -1.15
COc1ccc(-c2noc(CN(C(=O)C(C)(C)C)C(C)C)n2)cc1 | i | 0.5% | -0.63
CC(C)[C@H](NC(=O)CCn1nnc2ccccc2c1=O)C(=O)O | i | 3.8% | -0.11
COCC(C)n1c(C)cc(C(=O)COC(=O)c2oc3ccccc3c2C)c1C (stereo unspecified) | i | -1.6% | -0.62
Cc1ccc(N2CC(C(N)=O)CC2=O)cc1 (stereo unspecified) | i | -6.0% | -0.24
CN1CCN(S(=O)(=O)c2cccc(S(=O)(=O)c3ccc(Cl)c(Cl)c3)c2)CC1 | i | 2.3% | -0.39
CCOc1cc(S(=O)(=O)N2CCN(Cc3ccccc3)CC2)ccc1Br | i | -6.7% | 1.09
c1cnc(Oc2ccc(-c3nnco3)cc2)cn1 | i | -6.2% | 0.89
CC(=O)Nc1ccc(S(=O)(=O)Nc2nc(C)cc(-n3nc(C)cc3C)n2)cc1 | i | 0.5% | 0.13
O=S(=O)(Nc1ccccn1)c1ccc(Oc2ccccc2)cc1 | i | -0.6% | 1.44
S=C(c1ccc(N2CCOCC2)cc1)N1CCOCC1 | i | 2.9% | -0.41
Cc1ccccc1C(=O)N(C)Cc1ccccc1 | i | -1.9% | -0.74
CC(=O)Nc1cccc(NS(=O)(=O)Cc2ccc(Cl)cc2)c1 | i | 5.1% | -1.41
COC(=O)c1ccc(OCC(=O)Nc2nn(-c3ccccc3)nc2C(N)=O)cc1 | i | 11.0% | 0.64
CCOC(=O)Cc1csc(NC(=O)CSc2nc3cccnc3n2CC)n1 | i | -6.3% | -1.03
COc1ccc(C(CC(=O)O)NS(=O)(=O)c2ccc(C)cc2)cc1OC (stereo unspecified) | i | 0.3% | 0.3
CCCCCCOC(=O)CCn1[nH]c(=O)c2ccccc2c1=O | i | -4.3% | -0.08
Cc1nn(C)c(C)c1S(=O)(=O)N1CCC(C(=O)Nc2ccc3c(c2)OCCO3)CC1 | i | 5.4% | 0.73

Compound profiles (already shown):
Cc1ccccc1C(=O)N(C)Cc1ccccc1 across the screens: MT1-MMP reporter = i; Hsc70 = -1.9%; WNV NS2B-NS3 inh = -0.74
CCCCCCOC(=O)CCn1[nH]c(=O)c2ccccc2c1=O across the screens: MT1-MMP reporter = i; Hsc70 = -4.3%; WNV NS2B-NS3 inh = -0.08

Grouped by structure: the compounds so far containing a thiophene ring, fused or not.
SMILES | MT1-MMP reporter | Hsc70 | WNV NS2B-NS3 inh
Cc1sc2ncnc(SC(C)C#N)c2c1C (stereo unspecified) | i | 0.4% | 0.99
O=C(OCc1nc2ccccc2s1)c1cccs1 | i | -0.9% | -2.32
CCOC(=O)c1sc(N)c(C#N)c1CSc1nc2ccc(C)cc2[nH]1 | i | -6.1% | .
c1nnc2c3c4c(sc3ncn12)CCC4 | i | -1.1% | -0.62
Cc1sc2nc(SCC(=O)N(CCO)CCO)n(C3CCCCC3)c(=O)c2c1C | i | -1.6% | -0.13
CCCCCn1c(CCNC(=O)c2cccs2)nc2ccccc21 | i | -2.8% | .
CCOc1ccc(NC(=O)CN(C)S(=O)(=O)c2cccs2)cc1 | i | -4.9% | -0.37
O=C(CNS(=O)(=O)c1ccc(Br)s1)NCc1ccc2c(c1)OCO2 | i | 2.6% | -1.33
Cc1ccsc1C1C=C(c2cccc(Br)c2)Nc2ncnn21 (stereo unspecified) | i | 41.1% | -1.33

Continued.
SMILES | MT1-MMP reporter | Hsc70 | WNV NS2B-NS3 inh
COc1ccc2[nH]c(=O)c(CN(CCN3CCCC3)C(=O)Nc3ccccc3Cl)cc2c1 | i | -4.7% | -0.63
CC(=O)c1ccc(NC2OC(C)C(O)C(O)C2O)cc1 (stereo unspecified) | i | -0.7% | 0.37
O=C(CNC(=O)c1ccco1)NCCCc1ccccc1 | i | -2.4% | -0.07
COc1ccc2nc(C(F)(F)C(F)(F)F)c(C#N)c(N)c2c1 | i | -5.1% | .
CCOc1ccc(NS(=O)(=O)c2ccc3[nH]cc(C(=O)NC(C)CC)c(=O)c3c2)cc1 (stereo unspecified) | i | -2.0% | -1.36
CCOC(=O)c1sc(=S)n(-c2ccc3c(c2)OCO3)c1N | i | 5.0% | -2.74
CCOc1ccc2nc(SCC(=O)c3ccc(Cl)s3)sc2c1 | i | 0.6% | .
Cc1nn(CC(O)COc2ccc3c(c2)CCC3)c(C)c1Br (stereo unspecified) | i | -0.2% | .
Cc1cccc(NC(=O)c2sc3nc4c(c(-c5ccco5)c3c2N)CCC4)c1 | i | -20.9% | .
O=c1c(-c2ccnn2-c2ccccc2F)cnc2n1CCS2 | i | -1.4% | .
O=C(CSc1nnc(Cn2cnc3ccccc32)o1)c1ccccc1 | i | -9.7% | 0.6
